# Beta2AR agonist: human beta-2 adrenergic receptor agonism by FAP. P07550. Am2.2-beta2AR cells, FAP receptor internalization, flow cytometry; reference of the scale not given here. response, % (test concentration not listed). hit rate 0.43% among 340,000. AID 504454;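 active = response above a set limit, near 3 SD of response in nonfluorescent compounds, cut at about 42% in these data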;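 note: stock transfer was 100 nL into about 11 µL; a reference agonist was the positive control; negative values mostly stem from fluorescent compounds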
# Target sequence (P07550 whole entry, looked up): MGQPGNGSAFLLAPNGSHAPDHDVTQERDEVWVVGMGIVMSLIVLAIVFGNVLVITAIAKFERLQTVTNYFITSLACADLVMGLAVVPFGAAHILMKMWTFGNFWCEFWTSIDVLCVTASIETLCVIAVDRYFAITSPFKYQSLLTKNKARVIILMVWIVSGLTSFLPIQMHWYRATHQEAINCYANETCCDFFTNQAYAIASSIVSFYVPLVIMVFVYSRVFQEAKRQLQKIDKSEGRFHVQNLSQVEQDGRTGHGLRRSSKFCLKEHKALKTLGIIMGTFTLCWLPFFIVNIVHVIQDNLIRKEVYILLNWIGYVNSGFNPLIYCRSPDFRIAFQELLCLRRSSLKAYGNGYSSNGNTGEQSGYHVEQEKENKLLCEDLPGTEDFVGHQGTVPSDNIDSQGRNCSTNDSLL
# ALR inh: blocks human ALR sulfhydryl oxidase activity. P55789. purified ALR, DTT oxidation, H2O2 HRP-luminol luminescence. inhibition, % (no concentration beside the values). hit rate 3.8% among 290,000. AID 485317;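 active = mean and each replicate at 75% or more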;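 note: stock transfer was 7.5 nL into about 7.5 µL; 0% = neutral wells and 100% = wells with inactivated enzyme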
# rRNA inh HTS: inhibitors of bacterial rRNA selective over humanized ribosomes; E. coli WT GFP vs humanized-ribosome RFP mutants, fluorescence, 24 h; active compounds read low; DMSO median 0, no signal -100; GFP signal change (wild-type ribosome), % (concentration not given with the values); hit rate 1.6% among 350,000; AID 720706;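 active = significant combined selectivity score with lowered wild-type GFP, culture density cut under 30%, mutant RFP and density less affected; inactive = any of these conditions unmet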; note: one replicate is shown; some compounds called inactive have numbers as strong as hits
# HNF4A DNA FP: change in binding of human HNF4 alpha to DNA | P41235 | HNF4a-FITC DNA binding, fluorescence polarization, 1 h | activity change, % at 10 µM | hit rate 0.3% among 360,000 | AID 1224865; in the data active = activity change above about 30%, passing the limit was not always enough;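 note: controls were the assay level and a saturating level of protein; the project sought stronger binding though the title names inhibitors; some compounds called inactive have numbers as strong as hits; positive values seem to mean higher polarization but the record does not say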
# Target sequence (P41235 whole entry, looked up): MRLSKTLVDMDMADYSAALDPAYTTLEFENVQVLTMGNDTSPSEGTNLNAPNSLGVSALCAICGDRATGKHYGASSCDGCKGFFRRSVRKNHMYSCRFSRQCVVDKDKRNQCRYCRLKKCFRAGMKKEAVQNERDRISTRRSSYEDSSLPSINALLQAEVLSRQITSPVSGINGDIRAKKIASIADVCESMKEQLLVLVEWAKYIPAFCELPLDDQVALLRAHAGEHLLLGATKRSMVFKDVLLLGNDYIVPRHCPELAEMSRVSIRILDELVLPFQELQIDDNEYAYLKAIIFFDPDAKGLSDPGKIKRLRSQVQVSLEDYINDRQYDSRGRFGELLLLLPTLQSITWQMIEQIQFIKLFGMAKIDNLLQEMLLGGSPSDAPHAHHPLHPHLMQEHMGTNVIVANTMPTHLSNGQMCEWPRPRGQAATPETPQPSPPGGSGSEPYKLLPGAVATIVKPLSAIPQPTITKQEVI
# Ecoli growth: blocks Escherichia coli growth; OD600, 23 h; active compounds read low; OD600 absorbance (concentration not given with the values); hit rate 0.21% among 330,000;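 active = OD600 absorbance below the run mean of sample wells minus 3.6 SD, in any replicate, cut at about 0.56 in these data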;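 note: stock transfer was 300 nL into about 60 µL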
# UCH37 DUB inh: blocks the human deubiquitinase UCH37. inhibition, % (test concentration not listed). purified proteasome/UCH37, Ub-AMC cleavage fluorescence. hit rate 0.33% among 330,000. Q9Y5K5;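 active = mean of two replicates above 20%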;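 note: 0% = compound-free wells with enzyme and 100% = wells lacking proteasome; stock transfer was 100 nL into about 20 µL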
#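 assay system = human UCH37 enzyme supplied as purified proteasome complex | amount = proteasome at 0.15 nM in the dispensed enzyme solution | schedule = 30 min compound-proteasome preincubation then 25 min substrate reaction, room temperature | measured by = fluorescence, ex 355 nm, em 460 nm | benchmarks = no-proteasome wells (full inhibition) and compound-free wells (no inhibition)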
# FGF22 binding: binders of recombinant human FGF22 by thermal shift | hit rate 1.5% among 340,000 | Q9HCT0 | calls only at 9.99 µM | SYPRO orange fluorescence; percent of sucrose octasulfate shift, DMSO zero;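 active = melting point raised past a set limit in the mean and every replicate; three in four hits are not shown here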
# rRNA inh HTS OD600: recorded beside rRNA inh HTS, whose call it bears; OD600 change, %; measured here: OD600 growth;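 optical density of the mix in the first replicate; 0 = DMSO median and -100 = no signal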
# rRNA inh HTS RFP: second read-out of rRNA inh HTS, no call of its own (marks repeat the call); RFP signal change, %; measured here: RFP humanized mutant strains;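 first replicate; 0 = DMSO median and -100 = no signal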
# * = called active by the depositor; i = inactive; x = no result given.
Beta2AR agonist	ALR inh	rRNA inh HTS	rRNA inh HTS OD600	rRNA inh HTS RFP	HNF4A DNA FP	Ecoli growth	UCH37 DUB inh	FGF22 binding	Compound
6.8	-1.6	5.0	9.7	0.4	0.0	0.649	-0.1	i	O=C(/C=C/c1ccc(F)cc1)OCC(=O)c1ccc[nH]1
-2.2	32.4	-3.0	-7.7	3.2	0.3	0.665	-0.8	i	CC(C)(C)OC(=O)NCCCCCNC(=O)c1nc[nH]c1C(=O)N1CCN(c2ccccc2)CC1
1.4	-12.8	x	x	x	0.2	0.64	2.7	x	CC(=O)c1cccc(N2C(=NC(=O)C(C)C)SC3CS(=O)(=O)CC32)c1 (configuration not stated)
-3.6	2.4	7.1	5.9	1.7	-2.5	0.707	3.3	i	CSC1=NCCN1C(=O)c1ccc(C)cc1
4.1	-1.5	1.6	9.5	-1.7	0.4	0.674	-2.5	i	COC(=O)c1cccc(NC(=O)Cc2ccccc2[N+](=O)[O-])c1C
2.2	-8.3	11.5	11.9	1.3	0.9	0.706	4.6	i	O=C(NN1C(=O)c2ccccc2NC1c1ccccn1)c1ccc([N+](=O)[O-])cc1 (configuration not stated)
-3.3	-4.4	x	x	x	-0.3	0.686	-1.0	x	CCn1c(SCC(=O)Nc2ccc(N3CCOCC3)c(Cl)c2)nnc1-c1ccc(N)cc1
6.4	x	x	x	x	5.2	0.702	3.0	x	CCn1c(SCc2ccc([N+](=O)[O-])cc2)nnc1C(C)NC(=O)c1ccccc1Br (configuration not stated)
3.4	-5.9	-27.0	-23.1	1.9	-2.2	0.764	7.2	i	COc1ccc([C@H]2CC(=O)C=C(c3ccc(OC)c(OC)c3)C2)cc1
7.3	-1.7	x	x	x	3.5	0.621	3.3	i	COc1ccc(NC(=O)COc2ccc(C)nc2[N+](=O)[O-])cc1S(N)(=O)=O
-10.1	0.3	10.8	-2.8	-0.8	4.7	0.725	-5.2	i	Cc1ccc2cc(CN(CC3CCCO3)S(=O)(=O)c3ccc4c(c3)OCCO4)c(=O)[nH]c2c1C (configuration not stated)
7.0	-3.0	x	x	x	1.1	0.628	1.5	x	CCOC(=O)COc1ccc(S(=O)(=O)N2CCN(c3ccccc3F)CC2)cc1
3.5	1.4	x	x	x	-0.5	0.655	-259.5	x	CCCn1c(/C=C/c2ccccc2)nc2ccccc21
19.4	48.6	-2.0	11.8	-0.2	-3.7	0.652	4.8	i	CS(=O)(=O)c1ccc2nc(NC(=O)c3cccc(Cl)c3)sc2c1
2.5	-25.2	-1.5	2.0	2.9	-0.5	x	x	i	NC(=O)N/N=C\c1cccs1
1.2	0.0	x	x	x	3.5	0.665	0.2	x	O=C(Nc1ccccc1)NC1(C(=O)NCCCN2CCOCC2)CCCCC1
-6.5	-2.2	5.9	13.6	0.3	13.1	0.737	i	i	COc1ccccc1C(=O)Nc1nc2cc3c(cc2s1)OCO3
8.3	3.6	x	x	x	0.3	0.628	5.9	x	COc1ccccc1-n1c(C)c2c(OC)cccc(=O)c2c1C
6.3	-1.4	-3.8	-6.0	-0.7	-3.3	x	x	i	N/C(=N\OC(=O)CSc1ccccc1)c1cccc([N+](=O)[O-])c1
-28.6	-1.8	12.0	9.9	-1.8	1.1	0.702	2.4	i	CCOC(=O)N1CCN(S(=O)(=O)c2c[nH]c(C(=O)OC)c2)CC1
-11.4	x	-2.5	-2.2	0.5	6.0	0.63	4.8	i	Cc1cccc(NC(=O)Nc2ccccc2)n1
-0.8	-2.4	x	x	x	4.4	0.652	1.0	x	CCCCC(=O)Nc1nnn(CCC)n1
3.2	98.4*	x	x	x	1.2	0.723	-7.2	x	CCCc1nnc(SCC(=O)Nc2ccc(OCC)cc2)n1N
-4.7	x	x	x	x	0.2	0.709	0.0	x	COC(=O)CSc1nnc(CSc2nc(C)cc(C)n2)n1Cc1ccco1

# Some of these compounds in order of count of non-hydrogen atoms, highest first:
Beta2AR agonist	ALR inh	rRNA inh HTS	rRNA inh HTS OD600	rRNA inh HTS RFP	HNF4A DNA FP	Ecoli growth	UCH37 DUB inh	FGF22 binding	Compound
1.2	0.0	x	x	x	3.5	0.665	0.2	x	O=C(Nc1ccccc1)NC1(C(=O)NCCCN2CCOCC2)CCCCC1
-4.7	x	x	x	x	0.2	0.709	0.0	x	COC(=O)CSc1nnc(CSc2nc(C)cc(C)n2)n1Cc1ccco1
6.3	-1.4	-3.8	-6.0	-0.7	-3.3	x	x	i	N/C(=N\OC(=O)CSc1ccccc1)c1cccc([N+](=O)[O-])c1
-0.8	-2.4	x	x	x	4.4	0.652	1.0	x	CCCCC(=O)Nc1nnn(CCC)n1
2.5	-25.2	-1.5	2.0	2.9	-0.5	x	x	i	NC(=O)N/N=C\c1cccs1

# Back to the main list, starting 6 compounds before the break.
Beta2AR agonist	ALR inh	rRNA inh HTS	rRNA inh HTS OD600	rRNA inh HTS RFP	HNF4A DNA FP	Ecoli growth	UCH37 DUB inh	FGF22 binding	Compound
6.3	-1.4	-3.8	-6.0	-0.7	-3.3	x	x	i	N/C(=N\OC(=O)CSc1ccccc1)c1cccc([N+](=O)[O-])c1
-28.6	-1.8	12.0	9.9	-1.8	1.1	0.702	2.4	i	CCOC(=O)N1CCN(S(=O)(=O)c2c[nH]c(C(=O)OC)c2)CC1
-11.4	x	-2.5	-2.2	0.5	6.0	0.63	4.8	i	Cc1cccc(NC(=O)Nc2ccccc2)n1
-0.8	-2.4	x	x	x	4.4	0.652	1.0	x	CCCCC(=O)Nc1nnn(CCC)n1
3.2	98.4*	x	x	x	1.2	0.723	-7.2	x	CCCc1nnc(SCC(=O)Nc2ccc(OCC)cc2)n1N
-4.7	x	x	x	x	0.2	0.709	0.0	x	COC(=O)CSc1nnc(CSc2nc(C)cc(C)n2)n1Cc1ccco1
1.0	-2.0	-16.2	-5.4	-0.3	1.3	0.609	0.0	i	CC(C)(C)C1CCC(N2CCN(c3ccccc3)CC2)CC1 (configuration not stated)
-5.6	x	4.9	0.3	-3.5	2.7	0.721	3.6	i	CC(Sc1nncn1C)C(=O)Nc1ccc(S(N)(=O)=O)cc1 (configuration not stated)
-17.5	2.0	15.8	15.3	-0.9	1.2	0.665	1.9	i	CCOc1ccc(S(=O)(=O)N2CCC(C(=O)NC3CC3)CC2)cc1Cl
-4.3	-5.3	0.8	-0.1	-1.4	2.0	0.699	2.7	i	Cc1ccn(S(=O)(=O)c2ccc3oc(=O)ccc3c2)n1
-1.6	x	-1.5	-5.7	0.1	-2.3	0.661	1.5	i	Cc1ccc(Cl)cc1NC(=O)COC(=O)CN1C(=O)C2CCCCC2C1=O (configuration not stated)
5.0	-40.2	x	x	x	1.3	0.693	-33.5	x	COC(=O)CCc1c(C)c(C#N)c2nc3ccccc3n2c1N1CCCC1
11.7	-2.4	1.6	-0.6	2.2	1.6	0.71	4.4	i	CC1(C)CC(Nc2ccc(C(F)(F)F)cc2[N+](=O)[O-])CC(C)(C)N1
-4.2	-19.0	-16.3	-6.0	-6.4	-1.9	0.724	5.2	i	Cc1ccc(C)c(C(=O)COC(=O)c2cc([N+](=O)[O-])ccc2NCCO)c1
4.6	x	8.4	4.6	0.4	1.8	0.666	-0.8	i	CC(=O)c1ccc(OCC(=O)N2CCN(S(=O)(=O)c3ccc(Br)s3)CC2)cc1
0.5	-2.1	-0.2	12.5	-1.8	-4.3	0.691	1.9	i	Cc1ccc(-c2nnc(Nc3ccccc3)o2)cc1
-11.2	-2.8	2.3	6.9	-13.6	1.0	0.689	-9.6	i	COC(=O)c1cc2c(ccn2-c2ccc(F)cc2)n1Cc1ccc(OC(C)=O)cc1
-3.6	-1.9	-1.0	-6.3	-8.3	-3.5	0.66	-0.7	i	CCc1ccc(N2C(=O)C3C4C=CC(CC4)C3C2=O)cc1 (configuration not stated)
14.9	-13.2	x	x	x	3.7	0.737	6.5	x	O=C(NC1CC1)c1cc(Cl)ccc1[N+](=O)[O-]
-0.5	x	x	x	x	-1.4	0.728	-0.9	x	CC1CCN(C(=O)c2ccccc2NC(=O)c2cccc(S(=O)(=O)N3CCOCC3)c2)CC1
5.1	3.1	-2.5	-3.3	-1.4	-2.5	0.609	1.8	i	CC(=O)Oc1ccc(C(=O)N2c3ccccc3NC(=O)C2C)cc1 (configuration not stated)
6.1	0.8	1.3	5.1	-1.3	4.7	0.649	0.1	x	COc1cccc(NC(=O)C(C)N2C(=O)c3ccccc3S2(=O)=O)c1 (configuration not stated)
-4.3	x	-1.6	1.7	-2.4	-2.1	x	x	i	C[C@H](O)[C@@H]1C(=O)N2CCc3ccc(N4CCOCC4)cc3[C@@H]2C[C@@H]1N(C)S(=O)(=O)c1ccccc1
2.0	x	2.1	13.9	-5.4	5.4	0.721	0.1	i	Cc1ccc(-c2cccc(C3CC=CC4C3C(=O)N(Cc3ccccc3)C4c3ccc(C(F)(F)F)cc3)c2)cc1 (configuration not stated)
-2.0	-1.9	-0.9	-7.7	-0.1	-2.1	0.667	4.0	i	COc1cc2c(cc1OC)C(C)N(C(=O)c1sccc1C)CC2 (configuration not stated)
-17.4	9.3	-0.3	-4.1	-4.4	2.9	x	x	i	CN=C1SC(CC(=O)Nc2ccc(F)cc2F)C(=O)N1/N=C(\C)c1cccc(OCC(=O)O)c1 (configuration not stated)
-1.2	x	3.6	6.8	-0.5	-0.2	0.679	-0.1	i	COc1cccc(C(=O)C2CCCN(Cc3cccc(OCCO)c3)C2)c1 (configuration not stated)
7.7	-6.4	x	x	x	-4.6	0.696	1.2	x	COc1cc(NC(=O)c2cccnc2Sc2ccc(C)c(C)c2)cc(OC)c1OC
-8.5	-1.0	x	x	x	-4.7	0.714	-1.4	x	C=CCNC(=O)c1ccccc1NC(=O)c1ccc(Cl)c(S(=O)(=O)Nc2cc(C)ccc2C)c1
3.1	0.5	2.2	2.1	2.4	2.5	0.659	1.1	i	COC(=O)c1ccc(COC(=O)CNC(=O)C2CCCCC2)cc1
5.3	0.1	10.2	3.4	0.3	2.6	0.682	1.9	i	CCN(c1ccc(OC)cc1)S(=O)(=O)c1csc(C(N)=O)c1
-18.6	3.7	-3.4	3.9	-2.3	0.3	0.667	3.0	i	COCc1ccc(CN2CCCC(C(=O)Nc3ccc(-c4cscn4)cc3)C2)o1 (configuration not stated)
-0.2	-4.7	0.1	-1.5	-2.2	-1.7	0.698	2.4	i	COc1ccc(/C=C/C(=O)O)cc1S(=O)(=O)N1CCC(Cc2ccccc2)CC1
3.1	-11.8	x	x	x	-3.8	0.695	0.8	x	COc1ccc(Cc2nnc(N)s2)cc1OC
x	x	3.0	0.6	0.5	-2.9	x	x	i	CC1CCCC(NC(=O)CCN2C(=O)COc3ccccc32)C1C (configuration not stated)
-6.2	-9.9	4.9	5.1	1.3	0.5	0.661	-261.1	i	CCN1CCN(S(=O)(=O)c2ccc3c4c(cccc24)C(=O)N3CC)CC1

# An excerpt (hit frequency here may not be typical).
